Source: PubChem
FEN1 inhibitor – human FEN1 inhibition | Recombinant FEN1 flap cleavage, fluorescence, 15 min | 390,000 compounds, 0.35% hits | Potency, µM (titrated, usually from 114 µM), without a hit: at the top dose activity change, negative = inhibition, most hits filed as inhibitors; note: nearly all actives have a fitted effect of over 65% in size
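With each library titrated from low to high concentration, compounds met 10 nM FEN1 for 15 min at room temperature before 50 nM substrate was added; readings at 0 and 15 min fed four-parameter Hill curve fits.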
KAT2A inh – GCN5L2 (KAT2A) acetyltransferase inhibition; GCN5L2 HAT assay, ThioGlo1 CoA-SH fluorescence; Potency, µM (doses to about 58.9 µM), for the others: at the highest dose activity change, negative = inhibition, most hits filed as inhibitors; 390,000 compounds, 0.21% hits; AID 504327
Target sequence (Q92830 whole entry, looked up): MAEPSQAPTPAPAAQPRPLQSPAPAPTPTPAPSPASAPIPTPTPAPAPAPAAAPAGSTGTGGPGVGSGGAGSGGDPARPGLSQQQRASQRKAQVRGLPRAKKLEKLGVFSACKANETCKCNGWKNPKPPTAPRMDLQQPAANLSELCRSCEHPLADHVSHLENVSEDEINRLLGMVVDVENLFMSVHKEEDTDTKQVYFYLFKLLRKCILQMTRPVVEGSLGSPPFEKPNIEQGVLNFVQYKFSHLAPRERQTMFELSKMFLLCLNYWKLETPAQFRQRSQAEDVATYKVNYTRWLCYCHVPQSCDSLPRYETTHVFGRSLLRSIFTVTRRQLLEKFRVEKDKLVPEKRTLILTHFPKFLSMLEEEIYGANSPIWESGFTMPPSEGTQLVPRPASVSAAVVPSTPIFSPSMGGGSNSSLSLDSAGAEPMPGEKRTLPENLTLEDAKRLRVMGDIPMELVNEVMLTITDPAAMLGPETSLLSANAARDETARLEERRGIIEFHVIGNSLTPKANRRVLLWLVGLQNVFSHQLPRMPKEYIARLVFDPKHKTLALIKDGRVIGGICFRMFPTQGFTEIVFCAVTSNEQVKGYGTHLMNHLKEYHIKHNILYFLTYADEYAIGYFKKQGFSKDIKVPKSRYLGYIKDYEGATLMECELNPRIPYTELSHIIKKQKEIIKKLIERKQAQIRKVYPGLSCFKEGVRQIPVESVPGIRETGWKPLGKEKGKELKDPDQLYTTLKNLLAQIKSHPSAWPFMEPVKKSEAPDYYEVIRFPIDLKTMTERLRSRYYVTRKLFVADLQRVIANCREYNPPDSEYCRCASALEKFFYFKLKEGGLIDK
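Preincubate 20nM GCN5L2 with compound 15 min, RT → add 50uM ThioGlo1 + 75uM H3(1-25) + 70uM acetyl-CoA → read fluorescence 0 and 20 min. Primary qHTS; fluorescent artifacts likely.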
* = called active by the depositor; u = inconclusive; x = not tested or not shown; & = joins results of further samples; [ ] = remark or other dose. Calls come from the whole dose curve; as a rule, active = well fitted curve in the direction sought with a large enough effect; inconclusive = small, poorly fitted or top-dose-only effect, or another doubt; inactive = no such curve, though single readings can be large; an effect the other way counts as inactive or inconclusive. % is set by controls: 0 for no effect and ±100 for the full control effect; potency is the fitted concentration of half-maximal effect.

Value order – FEN1 inhibitor, KAT2A inh
> Cc1cccc(/C=N/NC(=O)c2ccccc2OCc2cccc(Br)c2)n1
 : 1%, -6%
> CC[C@H]1OC(=O)C[C@@H](O)[C@H](C)[C@@H](O[C@@H]2O[C@H](C)C[C@H](N(C)C)[C@H]2O)[C@@H](CC=O)C[C@@H](C)C(=O)C=C[C@]2(C)O[C@H]2[C@@H]1C
 : x, -4%
> COc1ccc(CN2C(=O)c3ccccc3C2C(=O)NCCc2ccccc2)c(OC)c1 (configuration not stated)
 : -12%&2%, 0%&-8%
> Nc1nc2c(C(=O)N3CCOCC3)nnn2c2ccccc12
 : 5%, -5%
> Cc1ccc(-c2nc3cc(C(C)C)ccc3o2)cc1NC(=O)c1cc([N+](=O)[O-])ccc1N1CCOCC1
 : 8%, -7%
> CCN(CC)CCNC(=O)CCc1nn(C)c(=O)c2ccccc12
 : -3%, 3%
> CCOC(=O)c1cccc(NC(=O)CCS(=O)(=O)c2cccc3nsnc23)c1
 : -2%, -1%
> Cc1ccc(NC(=O)Cn2nnnc2-c2ccccc2N)cc1
 : -12%, -3%
> Cc1nn(-c2nc3ccccc3s2)c(N)c1-c1ccc(Cl)cc1
 : -16%, -7%
> CCC(CC)C(=O)Nc1cccc(C(=O)N2CCCCCC2)c1
 : -6%, -23%
> Cc1ccc(NC(=O)c2ccc3c(c2)N(CC(=O)NC(C)C)C(=O)C(C)(C)O3)cc1
 : -2%, 0%
> COc1ccc(CCNC(=O)c2ccc3c(c2)CCN3S(=O)(=O)c2ccc(Cl)cc2)cc1
 : -9%, -3%
> COC(=O)/C=C/CSC1=N/C(=C/c2ccc(-n3cncn3)cc2)C(=O)N1
 : 4%, -4%
> COc1ccc(NS(=O)(=O)c2cc(NC(=O)c3sccc3C)ccc2N2CCOCC2)cc1
 : -14%, -5%
> COc1ccccc1/C=C/C(=O)OCC(=O)NC1CCS(=O)(=O)C1 (configuration not stated)
 : 4%, -9%
> O=C(NCCCn1ccnc1)c1noc2c1CCc1ccccc1-2
 : 1%, -3%
> Cc1nc2ccccc2n1CCc1nc2c3ccccc3nc(SCc3ccccc3F)n2n1
 : -6%, -3%
> O=C(NCc1ccc(F)cc1)C(c1ccccc1)N(C(=O)c1csnn1)C1CCCC1 (configuration not stated)
 : 1%, -2%
> O=C(CNC(=O)Cn1ccc2ccccc2c1=O)NCCCN1CCCCCC1
 : 6%, -3%
> O=C(/C=C/c1cccc([N+](=O)[O-])c1)N(c1ccccn1)c1ccccn1
 : -14%, -4%
> CC1(C)C(=O)OC(c2ccco2)C(C)(C)C1=O (configuration not stated)
 : -3%, -1%
> O=c1cc(-c2ccccc2)[nH]n1-c1nc2ccccc2s1
 : -5%, -10%
> COc1ccccc1N1CCN(CCCNC(=O)c2cnn(-c3ccc(C)c(C)c3)c2C2CCN(C(=O)OC(C)(C)C)CC2)CC1
 : -7%, 1%
> Cc1cc(=O)oc(C)c1C(=O)Nc1ccccc1F
 : 1%, -2%
> O=C(CCCn1cnc([N+](=O)[O-])n1)Nc1ccc(Cl)cc1Cl
 : -2%, -4%
> Cc1ccc(S(=O)(=O)N(CC(=O)Nc2ccccc2C(=O)O)c2ccccc2)cc1
 : 1%, 32%[activator]
> CC1C(=O)N2CCCc3cc(S(=O)(=O)Nc4ccccc4C(N)=O)cc1c32 (configuration not stated)
 : -4%, -3%
> CC1(C)CC2CC(C)(CN2CC(=O)C(C#N)c2ccccc2)C1 (configuration not stated)
 : 15%, -4%
> Cc1ccc(CNC(=O)CC(C)CC2=NS(=O)(=O)c3ccccc3N2)cc1 (configuration not stated)
 : -5%, -3%
> N/C(Cc1nc(-c2ccc(Br)cc2)cs1)=N\O
 : 15%, 0%
> CN(CC(=O)Nc1ccc(F)c(F)c1F)C(=O)c1n[nH]c(=O)c2ccccc12
 : -3%, -6%
> Cc1cccc(-c2cc(C(=O)Nc3sc(C)c(C)c3C(N)=O)c3ccccc3n2)c1
 : -11%, 11%
> Cc1cccc(NC(=O)c2cccc(S(=O)(=O)N3CCCCC3)c2)c1
 : -21%, -5%
> Cc1noc(C)c1COC(=O)c1ccccc1NC(=O)Cc1ccccc1
 : -17%, -6%
> COC(=O)[C@H](Cc1ccccc1)NC(=O)O[C@H]1C(=O)c2ccc(OC)cc2O[C@@H]1c1ccc2c(c1)OCO2
 : -8%, -7%
> COc1ccc(N2CCN(C3CC(=O)NC3=O)CC2)cc1 (configuration not stated)
 : 12%, -5%
> Cc1sc2nc(CSC(C)C(=O)NC3(C#N)CCCCC3)[nH]c(=O)c2c1C (configuration not stated)
 : 17%, 0%
> CC(C)(C)NCC(O)(c1ccc(Cl)cc1)c1ccc(Cl)cc1
 : 1%, -4%
> CCOc1cc(CNCc2ccccn2)cc(Cl)c1OCC
 : 5%, -4%
> COc1ccc(/C=N/NC(=O)c2cc(C)n(-c3ccccc3)c2C)cc1OC
 : -1%, -15%
> O=Cc1cnc(N2CCN(Cc3ccccc3)CC2)s1
 : 17%, -27%
> CS(=O)(=O)N(CC(=O)NCCC1=CCCCC1)c1cccc([N+](=O)[O-])c1
 : -16%, 0%
> Cc1cccc(NS(=O)(=O)c2cc(C(=O)N3CCc4ccccc4C3)ccc2Cl)c1C
 : 11%, 10%
> Cc1cccc(-n2ccnc2SCC(=O)Nc2cc(C(F)(F)F)ccc2Cl)c1
 : -23%, -8%
> c1cnc2cc(-c3ccsc3)ncc2c1
 : -19%, 1%
> COc1ccc(CCNC(=O)CSC2=NS(=O)(=O)c3cc(Cl)ccc3N2)cc1OC
 : -4%, 3%
> Cc1ccc(Oc2c(C(F)(F)F)oc3c(CN4CCC(C)CC4)c(O)ccc3c2=O)cc1
 : -3%, -4%
> Cc1ccc(OCC(=O)N/N=C2\CCOc3c(C)cccc32)cc1
 : -14%, -1%
> CCn1c(=O)c2cc(C(=O)NCCN3CCOCC3)sc2c2ccccc21
 : -2%, -8%
> O=C(O)COc1ccc(F)cc1Br
 : -6%, -3%
> O=C(O)CCNS(=O)(=O)c1ccc2c(c1)Cc1ccccc1-2
 : -9%, 1%
> O=C(CNC(=O)c1ccco1)OCc1ccc(C(=O)c2ccccc2)cc1
 : -2%, 1%
> CCOC(=O)c1ccccc1NC(=O)CSc1ccc(-c2cccs2)nn1
 : 11%, -6%
> COc1ccc(NC(=O)CNS(=O)(=O)c2cccs2)c(OC)c1
 : -14%&6%, 1%&-1%
> COc1ccccc1NC(=O)CSc1ccc(-c2sc(C)nc2C)nn1
 : 5%, -9%
> COc1ccc(-n2ccn(CC(=O)NCCc3ccccc3)c(=O)c2=O)cc1OC
 : 13%, -3%
> O=C1C2=C(C(c3ccccc3)=NCCN2)C(c2cccc([N+](=O)[O-])c2)N1c1ccccc1 (configuration not stated)
 : 5%, -16%
> O=C(Cc1ccccc1)Nc1sc2c(c1C(=O)Nc1ccccc1)CCCCC2
 : -6%, -1%
> CCOC(=O)C(=O)Cc1nc2ccccc2s1
 : -5%, -4%
> Cc1cccc(-c2nnc(SCC(=O)c3ccc(O)cc3O)n2C)c1
 : 1%, -5%

(cont.)
Value order – FEN1 inhibitor, KAT2A inh
> O=C(N/C(=C/c1ccco1)C(=O)N1CCCCCC1)c1ccccc1
 : -10%, -1%
> COc1cccc(OCc2cc(C(=O)N3CCNC(=O)C3Cc3ccccc3)no2)c1 (configuration not stated)
 : -8%, -6%
> Cc1c(CNC2CCCCC2)c(C(=O)O)c(C)n1Cc1ccc(F)cc1
 : -2%, 0%
> CN(C(=O)c1ccccc1)c1ccc(OCC(=O)NC2CCS(=O)(=O)C2)cc1 (configuration not stated)
 : -5%, -8%
> Cc1ccc(/C=C/C(=O)c2ccc(O)cc2)cc1
 : 0%, -3%
> CCC(O)(CCN1CCCCC1)c1ccccc1 (configuration not stated)
 : -2%, -14%
> CSc1ccc(CN(C)C(=O)c2cc3ccccc3o2)cc1
 : u, -5%
> CC(Oc1ccccc1)C(=O)Nc1ccc(S(=O)(=O)N2CCOCC2)cc1 (configuration not stated)
 : 0%, 0%
> CCOC(=O)N1CCN(C(=O)C(=O)NNC(=O)COc2ccc(Cl)c(C)c2)CC1
 : 3%, -8%
> CCCCn1c(N)c(N(CC(C)C)C(=O)CSc2ccc([N+](=O)[O-])cc2)c(=O)[nH]c1=O
 : -12%, 0%
> CCn1c(SCc2cccc(F)c2)nc2c(c1=O)SCC2
 : -8%, -12%
> CC/C(=C(\c1ccccc1)c1ccc(OCCN(C)C)cc1)c1ccccc1
 : -20%&2%, u
> CC(C)(C)OC(=O)N1CCC(c2c(C(=O)N3CCN(C(=O)c4ccco4)CC3)cnn2-c2ccc(Cl)cc2)CC1
 : -3%, 4%
> C[C@@H](NC(=O)[C@@H]1Cc2ccccc2CN1C(=O)OC(C)(C)C)C(=O)NC1CCCC1
 : 18%, 1%
> COC(=O)C(CCSC)NC(=O)C(NC(=O)C1CCC(C)CC1)C(C)C (configuration not stated)
 : 2%, 2%
> COc1ccccc1N1CCN(CC(O)COc2ccc(S(=O)(=O)N3CCOCC3)cc2)CC1 (configuration not stated)
 : 0%, 1%
> O=C(Nc1ccncc1)Nc1cccc(F)c1
 : -17%, -21%
> CC1=C(C(=O)Nc2ccccc2)C(c2cccc(O)c2)n2nc(-c3ccccc3Cl)nc2N1 (configuration not stated)
 : -18%, 0%
> CCOc1ccc(S(=O)(=O)Nc2ccccc2SC)cc1
 : -1%, 4%
> Cc1ccc2cccc(OCC(=O)N3CCc4ccccc43)c2n1
 : 2%, -5%
> COc1ccc(S(=O)(=O)N2CCN(Cc3cccc(OC)c3)CC2)cc1
 : 2%, 0%
> Cc1ccc(N(CC(=O)NCC(C)c2ccccc2)S(=O)(=O)N(C)C)cc1 (configuration not stated)
 : -4%, 14%
> COc1ccc(OC)c(S(=O)(=O)N2CCC(C(=O)NCCC3=CCCCC3)CC2)c1
 : -1%, -3%
> c1cc2c(cc1NC1CCCCCC1)OCO2
 : 1%, -11%
> O=C(NCc1ccccc1Cl)C1CCN(c2ncnc3c2nc2n3CCCCC2)CC1
 : -7%&-7%, -6%&-5%
> CC(=O)N(c1cccc(C)c1)C1SC(=O)N(c2ccccc2)C1=O (configuration not stated)
 : 1%, 3%
> CNCC(O)Cn1c(C(F)(F)F)nc2ccccc21 (configuration not stated)
 : 0%, -3%
> CCCCN(Cc1ccccc1)C(=O)CN(C)S(=O)(=O)c1ccc2c(c1)c(=O)n(C)c(=O)n2C
 : 29%, 6%
> CC1=C(C(=O)Nc2ccccc2)C(C(C)C)n2nc(SCc3ccccc3C)nc2N1 (configuration not stated)
 : -3%, 3%
> COc1ccc(OC)c(NC(=O)Nc2ccc3c(c2)CCC3)c1
 : -15%, -8%
> CN(CC(=O)Nc1ccc(S(N)(=O)=O)cc1)Cc1ccccc1F
 : -1%, -7%
> Cc1cc(C(=O)NNC(=S)Nc2ccccc2C)cs1
 : 3%, -5%
> CC(=O)N1c2ccc(S(=O)(=O)N3CCCC3)cc2CC1C(=O)NCc1ccccc1F (configuration not stated)
 : -4%, u
> COc1ccc(C2Cc3ccccc3C(=O)O2)cc1 (configuration not stated)
 : -7%, 1%
> O=C(CCOc1ccccc1)Nc1ccccc1[N+](=O)[O-]
 : 16%, -10%
> O=C(O)C12CC3CC(C1)CC(n1cnc(Cl)n1)(C3)C2
 : -12%, -17%
> Cc1ccc(-n2nc(C)c3c(C)c(CCC(=O)NCc4cccc(Cl)c4)c(C)nc32)cc1C
 : 7%, -1%
> Cc1cc(C)n(-c2ccc(C(=O)Nc3cc(C(F)(F)F)ccc3N3CCOCC3)cc2)n1
 : 4%, 3%
> COc1ccc(OCc2ccc(/C=N\NC(=O)c3sccc3C)o2)cc1
 : -8%, -6%
> COCCn1c(=O)[nH]c2cc(C(=O)Nc3nnc(C)s3)ccc21
 : 4%, -1%

Taken from above.
For KAT2A inh, COc1ccc(OC)c(S(=O)(=O)N2CCC(C(=O)NCCC3=CCCCC3)CC2)c1 is listed with -3%
For FEN1 inhibitor, COc1ccc(S(=O)(=O)N2CCN(Cc3cccc(OC)c3)CC2)cc1 is listed with 2%

Carrying on.
Value order – FEN1 inhibitor, KAT2A inh
> Cc1ccc(C)c(-n2c(CNC(=O)c3ccco3)nnc2SCC(=O)Nc2nnc(C)s2)c1
 : 1%, 2%
> O=C(O)c1sccc1SCc1ccc(Cl)cc1Cl
 : -3%, -20%
> O=C(NCCc1cccs1)c1ccc(Cn2c(SCc3cccc(F)c3)nc3cccnc32)cc1
 : 3%, -4%
> C=CCn1c(C)nc2ccccc2c1=O
 : -6%, 2%
> O=C(NC1CC2CCC(C1)N2C(=O)NC1CCCCC1)NC12CC3CC(CC(C3)C1)C2 (configuration not stated)
 : -1%, 1%

Of the compounds above, these contain a COOH group.
Value order – FEN1 inhibitor, KAT2A inh
> Cc1ccc(S(=O)(=O)N(CC(=O)Nc2ccccc2C(=O)O)c2ccccc2)cc1
 : 1%, 32%[activator]
> O=C(O)COc1ccc(F)cc1Br
 : -6%, -3%
> O=C(O)CCNS(=O)(=O)c1ccc2c(c1)Cc1ccccc1-2
 : -9%, 1%
> Cc1c(CNC2CCCCC2)c(C(=O)O)c(C)n1Cc1ccc(F)cc1
 : -2%, 0%
> O=C(O)C12CC3CC(C1)CC(n1cnc(Cl)n1)(C3)C2
 : -12%, -17%
> O=C(O)c1sccc1SCc1ccc(Cl)cc1Cl
 : -3%, -20%

These rows are one share of the data; most or all hits stand in other tables.
